Source: PubChem (National Center for Advancing Translational Sciences (NCATS))
GLA inh pH 4.5 = qHTS Assay for Inhibitors of Human alpha-Galactosidase at pH 4.5; Alpha-galactosidase A (Homo sapiens), P06280; purified enzyme, 4-MU-alpha-Gal fluorescence, pH 4.5; activity change, negative = inhibition, % at 105 µM; 230,000 tested, under 10 active; inconclusive = small, poorly fitted or top-dose-only inhibition, or a rising curve; inactive = flat fitted curve, though single readings scatter; no compound was filed as active;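 note: 0% = full activity with enzyme and -100% = basal without enzyme; dose as in the result columns while the protocol names 77 µM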
Rango release inh = qHTS Assay for Inhibitors of RanGTP induced Rango (Ran-regulated importin-beta cargo) - Importin beta complex dissociation | Snurportin-1 (Homo sapiens) + GTP-binding nuclear protein Ran (Homo sapiens) + Importin … | Biochemical FRET Rango-importin beta, RanGTP-induced dissociation | Potency, µM (titrated, usually from 46.1 µM), without a hit: top-dose activity change, negative = inhibition | 0.071% of 340,000 active | AID 540253, 2011; active means falling FRET ratio curve, often poorly fitted, with flat reads before Ran was added; inconclusive means other falling curves, or compound fluorescence or quenching; inactive means flat or rising ratio curve;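 note: potency is the fitted concentration of half-maximal effect; % of control where 0% means no effect; nearly all actives have a fitted effect of over 45% in size; -100% = wells without RanGTP and RCC1; the record marks most hits as doubtful in a second field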
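Recombinant Rango FRET biosensor (EYFP–snurportin 1 IBB–cerulean CFP10) at 0.1 uM premixed with 0.25 uM importin beta in PBS, 1 mM DTT, 0.02% Tween-20, 0.1% BSA. Compound added 5 min; RanGTP-RCC1 (0.6 uM Ran, 2 mM GTP, 0.2 uM RCC1) then triggers release, read at 45 min.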
miR-21 reporter = qHTS Assay for Modulators of miRNAs and/orActivators of miR-21; HeLa miR-21 FLuc reporter, luciferase, 48 h; Potency, µM (top dose mostly 38.3 µM), for inactives: at the top dose reporter change, positive = more light; 340,000 tested, under 10 active; AID 2288, 2010; active = well fitted rising curve with a large enough effect; inconclusive = small, poorly fitted or top-dose-only effect; inactive = no such curve, though single readings can be large or run the other way;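 note: % of control where 0% means no effect; miR-21 action dims this reporter so a rising signal means less miR-21 action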
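HeLa miR-21-FLuc reporter line, endogenous miR-21; 2000 cells/well in DMEM/10% FBS; compound titration up to ~40uM final, 48 h, 37 degree Celsius; luciferase detection reagent, 15 min lysis, CCD luminescence.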
Rango-impB inh = qHTS Assay for Inhibitors of Rango (Ran-regulated importin-beta cargo) - Importin beta complex formation; Importin subunit beta-1 (Homo sapiens), Q14974; Rango CFP/YFP FRET sensor + importin beta, 45 min; Potency, µM (doses to about 92.2 µM), for the others: at the highest dose inhibition of complex formation; 0.031% of 340,000 active; AID 540263, 2011; active = rising FRET ratio curve, often small or poorly fitted; inconclusive = mostly compound fluorescence or quenching in the first reads; inactive = flat curves in all reads;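 note: potency is the fitted concentration of half-maximal effect; 0% = DMSO wells and 100% = buffer wells lacking importin beta; nearly all actives have a fitted effect of over 15% in size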
Target sequence (Q14974 whole entry, looked up): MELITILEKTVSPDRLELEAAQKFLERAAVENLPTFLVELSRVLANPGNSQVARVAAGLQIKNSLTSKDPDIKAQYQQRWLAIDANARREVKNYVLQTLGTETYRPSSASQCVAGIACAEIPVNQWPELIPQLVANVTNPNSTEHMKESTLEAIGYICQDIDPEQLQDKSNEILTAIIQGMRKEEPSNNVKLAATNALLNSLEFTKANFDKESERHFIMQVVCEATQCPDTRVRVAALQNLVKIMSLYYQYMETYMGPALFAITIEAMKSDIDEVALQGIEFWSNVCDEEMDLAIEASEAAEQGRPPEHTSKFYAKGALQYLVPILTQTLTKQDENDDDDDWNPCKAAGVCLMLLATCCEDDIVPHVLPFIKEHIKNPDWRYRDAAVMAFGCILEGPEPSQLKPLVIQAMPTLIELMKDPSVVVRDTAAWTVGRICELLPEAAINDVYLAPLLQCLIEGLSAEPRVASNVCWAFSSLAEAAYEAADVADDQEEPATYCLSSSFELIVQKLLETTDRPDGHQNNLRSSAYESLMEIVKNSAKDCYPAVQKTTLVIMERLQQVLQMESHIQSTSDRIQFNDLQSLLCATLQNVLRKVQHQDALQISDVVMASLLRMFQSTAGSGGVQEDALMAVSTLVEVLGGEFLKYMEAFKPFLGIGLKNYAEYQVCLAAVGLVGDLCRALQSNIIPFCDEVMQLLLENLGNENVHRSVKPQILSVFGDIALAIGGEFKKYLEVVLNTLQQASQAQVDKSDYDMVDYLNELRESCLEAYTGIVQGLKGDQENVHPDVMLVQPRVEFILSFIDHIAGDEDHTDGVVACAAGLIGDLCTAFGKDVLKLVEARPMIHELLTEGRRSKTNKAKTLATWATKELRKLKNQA
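Inhibition scored from the CFP 486 nm/YFP 530 nm FRET ratio 45 min after adding 0.125 microM importin beta to 50 nM Rango biosensor preincubated 5 min with compound (room temperature, PBS with DTT, Tween-20, BSA). No-importin wells as positive control.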
The depositor's hits bear a star; ? = inconclusive; nt = no result given; & = joins results of further samples; [ ] = dose if it differs, or a comment. Only part of the results is shown (hit frequency here may not be typical).

GLA inh pH 4.5	Rango release inh	miR-21 reporter	Rango-impB inh	smiles
-4.9	-9.4%	-1.8%	-0.3%	COC(=O)C1C(=O)C2=C(CC1C)NC(C)=C(C(=O)OC1CCCC1)C2c1ccc(N(C)C)cc1 (stereo not drawn)
nt	-17.3%	nt	-0.6%	NS(=O)(=O)c1ccc(CCNC(=O)Cc2ccc(S(=O)(=O)N3CCOCC3)s2)cc1
8.8	-12.4%	-4.0%	0.0%	CC(C)(C)NC(=O)NC(=O)CN1CCN(c2ccccc2)CC1
-6.5	-11.0%	-24.8%	-2.2%	CCOC(=O)c1ccc(NC(=S)NN2CCOCC2)cc1
2.5	8.7%	-11.0%	-0.8%	O=C(COC(=O)CN1C(=O)C2CCCCC2C1=O)NC1CCS(=O)(=O)C1 (stereo not drawn)
nt	-4.4%	?	-4.3%	COc1ccccc1C(=O)COC(=O)CNS(=O)(=O)c1ccc(NC(C)=O)cc1
-2.4	11.9%	-3.4%	-1.7%	Cc1ccc(N(CC(=O)NCc2ccco2)C(=O)CCC(=O)Nc2nccs2)cc1
-7.3	3.7%	-5.8%	9.4%	CCCCNCCOCCOc1ccc(F)cc1
nt	0.1%	nt	?	O=C(NCC(=O)N1CCCCCCC1)c1cccc([N+](=O)[O-])c1
-0.4	-16.8%	-1.6%	3.7%	Cc1cc(C(F)F)n2nc(C(=O)NCc3ccccc3F)nc2n1
nt	-3.3%	nt	1.3%	Cc1ccc(SCC(=O)OC(C)C(=O)Nc2ccc(S(N)(=O)=O)cc2)cc1C (stereo not drawn)
nt	-26.0%	nt	?	COC(=O)C1CCN(C(=O)c2cc(-c3ccc(Cl)s3)nc3ccccc23)CC1
9.4	?	-2.7%	0.7%	CC(=O)Cn1c(CN2CC(C)CC(C)C2)nc2c1c(=O)n(C)c(=O)n2C (stereo not drawn)
-0.7	-5.9%	-4.1%	4.4%	COc1ccc(CC(=O)Nc2ccc(S(=O)(=O)Nc3cc(C)on3)cc2)cc1
5.9	-6.7%	-10.4%	1.2%	CC(C(=O)Nc1cc([N+](=O)[O-])ccc1Cl)N1CCN(c2ccc(O)cc2)CC1 (stereo not drawn)
-11.3	0.6%	-15.0%	1.4%	Cc1cccc(-c2noc(-c3ccccc3C(=O)NCc3ccco3)n2)c1
-1.9	5.8%	-4.5%	-1.7%	Cc1nnc(SCC(=O)NC2CCCCC2)n1C1CCCCC1
0.8	5.1%	1.6%	4.9%	CC1(C)C(c2ccc(Cl)cc2)=[N+]([O-])C2(CCCC/C2=N\O)N1O (stereo not drawn)
6.5	15.5%	2.2%	-1.4%	Cc1ccc(CSc2nnc(-c3ccc4c(c3)OCO4)o2)cc1
nt	-13.8%	0.9%	-0.3%	COc1ccc(OC)c(NC(=O)CCCNC(=O)c2ccc(Cl)cc2)c1
nt	14.0%	1.6%	-1.8%	Cn1c(=O)cc(Nc2ccc(Cl)cc2)[nH]c1=O
-0.4	12.6%	-4.7%	4.9%	Cc1ccc(NC(=O)CCCCCC2NC(=O)NC2C)cc1 (stereo not drawn)
nt	-3.6%	0.6%	1.4%	O=C(CCNS(=O)(=O)c1ccccc1C(F)(F)F)NCCCSc1ccccc1
-3.9	15.3%	0.2%	0.4%	COc1cc(C(=O)O)ccc1OC(C)=O
nt	-0.1%	nt	0.2%	CCN(CC(=O)Nc1ccc(NC(C)=O)cc1)C(=O)C1CC(=O)N(Cc2ccc(C)cc2)C1 (stereo not drawn)
-8.2	12.3%	0.5%	1.4%	CCCCn1c(SCC(=O)c2ccccc2)nc2ccsc2c1=O
-1.4	-3.1%	0.4%	-1.7%	Cn1/c(=N/N=C/c2ccc(Cl)c([N+](=O)[O-])c2)sc2ccccc21
4.3	0.3%	0.3%	3.1%	Cc1cc(N2CC(C(=O)O)CC2=O)ccc1Br (stereo not drawn)
3.0	-0.6%	-12.5%	-3.0%	Brc1ccc(-c2noc(COc3ccc4ccccc4c3)n2)o1
-8.1	-6.0%	-7.5%	0.2%	COc1nc(-c2ccccc2)cc(-c2ccc(OC)c(OC)c2)n1
-20.1	?	-3.9%	1.4%	Fc1ccc(C(CNC(=S)NC2CCCCC2)N2CCOCC2)cc1 (stereo not drawn)
-0.8	1.4%	-52.1%	6.6%	O=C(O)/C=C/C(=O)Nc1ccc2c(c1)C(=O)c1ccccc1C2=O
nt	6.4%	-0.2%&-3.1%	-0.2%	Cc1cccc(N2CCN(S(=O)(=O)c3c(C)nc4scc(C)n4c3=O)CC2C)c1 (stereo not drawn)
nt	1.6%	nt	-2.6%	O=C(NCc1ccccc1)c1nc[nH]c1C(=O)N1CCN(c2ccccc2)CC1
6.2	-4.4%	-17.4%	0.2%	c1ccc(-c2cn3c(n2)CCC3)cc1
-2.9	?	-45.6%	-2.7%	CCC(=O)Nc1sc2c(c1C#N)CCCCC2
4.4	-9.5%	-2.5%	0.3%	O=C(Nc1ccncc1)c1cc(F)cc(F)c1
-5.8	-12.4%	-21.9%	0.7%	Cc1ccc(-c2cc(Cc3ccc(F)cc3)c(=O)[nH]n2)cc1
nt	3.8%	-28.5%	-1.4%	O=C(NCCSCc1c(F)cccc1Cl)Nc1ccccc1
-9.7	-11.3%	-5.5%	5.1%	COc1ccc(/C=C/C(=O)c2cc3cccc(OC)c3oc2=O)cc1
2.9	-8.8%	-54.6%	1.4%	c1ccc(-n2ncc3c2ncn2nc(-c4ccco4)nc32)cc1
6.6	-1.0%	-24.7%	-8.5%	CCN(CC)S(=O)(=O)c1cc(C(=O)OCC(=O)Nc2ccc(-c3nc4ccc(C)cc4s3)cc2)ccc1F
0.7	3.6%	-5.2%	-2.9%	Cc1ccc(C(C(=O)NC2CCCCC2)N2CCCC2)cc1 (stereo not drawn)
-2.0	18.8%	?	-0.7%	CCCCC(=O)N1C/C=C\C(c2ccc(OC)cc2)N(Cc2ccc(F)cc2)C(=O)[C@H]1Cc1ccccc1 (stereo partly drawn)
nt	-4.3%	-5.4%	5.7%	CCn1c(SCC(=O)NC2CC2)nnc1-c1ccc(OC)cc1
nt	16.4%	-0.7%	1.2%	CC1CCCCN1C(=O)CN(C)S(=O)(=O)c1cccc2nsnc12 (stereo not drawn)
-8.3	-6.7%	-53.4%	-2.0%	Nc1[nH]n(-c2ccccc2)c(=O)c1N=Nc1ccccc1
nt	0.4%	9.2%	-0.1%	CC(C)OCCCN1CC(=O)N2C(c3cccc([N+](=O)[O-])c3)c3[nH]c4ccccc4c3C[C@H]2C1=O (stereo partly drawn)
4.6	0.7%	3.8%	1.0%	CC(C)c1ccc(NC(=S)NN2C(C)CCCC2C)cc1 (stereo not drawn)
8.5	0.2%	-6.7%	0.0%	CCOC(=O)CNC(=O)CSc1nc(N(C)C)nc(N2CCOCC2)n1
4.8	0.2%	-5.6%	0.3%	CC(=O)c1cccc(NC(=O)NC(C)c2ccncc2)c1 (stereo not drawn)
-7.2	?	-21.5%	?	CN1C(=O)C(N=Nc2ccccc2C(=O)O)N(C)C1=S (stereo not drawn)
-3.2	-15.8%	-16.1%	-3.7%	O=C(Cn1nnc2ccccc2c1=O)Nc1cc(C(F)(F)F)ccc1N1CCOCC1
1.4	2.0%	?	-1.6%	Cc1cc(OC(F)F)ccc1NC(=O)Nc1ccc([N+](=O)[O-])cc1
nt	0.4%	0.0%	-2.6%	COc1ccc(C)cc1NC(=O)CCNS(=O)(=O)c1cccc(C(F)(F)F)c1
-1.7	0.2%	-1.0%	-4.9%	Cn1c(=O)[nH]c(=O)c2c1nc1n2CCCN1Cc1ccccc1
7.6	2.0%	-20.2%	3.0%	O=C(Cc1ccccc1)Nc1ccc2oc(-c3ccncc3)nc2c1
nt	-6.4%	-1.2%	2.4%	O=C(COc1ccc(S(=O)(=O)Nc2ccccc2)cc1)NCc1ccccn1
-4.1	3.0%	2.9%	-0.3%	Cn1c(=O)c([N+](=O)[O-])c(NCC(O)c2ccccc2)c2ccccc21 (stereo not drawn)
-2.8	0.1%	-5.2%	4.5%	O=C(Cc1cccc2ccccc12)Nc1ccccc1C(=O)O

Following part.
GLA inh pH 4.5	Rango release inh	miR-21 reporter	Rango-impB inh	smiles
-6.3	11.6%	0.8%	-0.5%	CCN1CCC(NC(=O)Nc2ccc(F)cc2)CC1
-1.5	0.5%	14.9%	-5.9%	COc1ccc(-c2noc(CCC(=O)NCCCN3CCN(c4ccccc4F)CC3)n2)cc1
nt	11.9%	7.3%	-3.7%	O=C(CN1CCN(Cc2ccc(Cl)cc2)CC1)N1CCc2ccccc21
4.0	7.1%	2.2%	1.3%	COc1cc(NC(=O)COc2ccc(Cl)cc2)ccc1-c1cc2ccccc2oc1=O
-3.4	16.5%	0.6%	0.5%	CC1(C)CC(=O)C(C=NC2CC(C)(C)NC(C)(C)C2)=C(O)C1
-0.3	11.8%	0.2%	0.9%	Cn1c(CC(=O)Nc2ccc(Cl)c(Cl)c2)nnc1SCC(=O)Nc1nccs1
-8.0	nt	-7.2%	nt	N#CC1=C(N)Nc2ncnn2C1c1ccccc1 (stereo not drawn)
nt	3.9%	-8.8%	-1.1%	O=C(O)c1cccc(NC(=S)NC(=O)c2ccc3ccccc3c2)c1
nt	-18.4%	nt	0.6%	CCNc1nc(NCC)n2c(SCC(=O)Nc3ccccc3Cl)nnc2n1
1.9	-15.7%	-14.1%	-3.1%	CCN(CC)C(=O)Nc1ccc(Br)cc1
-1.4	-4.9%	-8.9%	-4.5%	Cn1c(N)nc2ccccc2c1=O
-1.6	-4.9%	-5.1%	-0.8%	O=C(NCCCN1CCC(Cc2ccccc2)CC1)C1CC(=O)N(C2CCCCCC2)C1 (stereo not drawn)
-0.1	-6.4%	-2.9%	-3.4%	COc1cc(NC(=O)COC(=O)CNC(=O)c2ccc(Cl)cc2)c(C)cc1[N+](=O)[O-]
nt	17.3%	14.3%	-3.6%	CCN(C(=O)c1cccnc1SC)C12CC3CC(CC(C3)C1)C2
nt	-6.1%	nt	-4.8%	Clc1ccccc1CSc1cnnc2ccccc12
-2.0[21.1 µM]	5.6%	-29.5%&-35.6%	-3.5%	O=C(Nc1ccc(Cl)cc1)N1CCC(c2ccccc2)C1 (stereo not drawn)
nt	-8.3%	nt	2.3%	O=C(COc1ccccc1Cl)Nc1ccc2[nH]c(=O)[nH]c2c1
nt	5.6%	4.2%	-1.2%	CN(CC1CCCN(CCc2ccc(Cl)cc2)C1)C(=O)c1ccc2nc[nH]c2c1 (stereo not drawn)

Shown with values under each structure: entries from further up
Value order – GLA inh pH 4.5 | Rango release inh | miR-21 reporter | Rango-impB inh
> COc1cc(NC(=O)COc2ccc(Cl)cc2)ccc1-c1cc2ccccc2oc1=O
→ 4.0 | 7.1% | 2.2% | 1.3%
> CC1(C)CC(=O)C(C=NC2CC(C)(C)NC(C)(C)C2)=C(O)C1
→ -3.4 | 16.5% | 0.6% | 0.5%
> Cn1c(CC(=O)Nc2ccc(Cl)c(Cl)c2)nnc1SCC(=O)Nc1nccs1
→ -0.3 | 11.8% | 0.2% | 0.9%
> N#CC1=C(N)Nc2ncnn2C1c1ccccc1 (stereo not drawn)
→ -8.0 | nt | -7.2% | nt
> O=C(O)c1cccc(NC(=S)NC(=O)c2ccc3ccccc3c2)c1
→ nt | 3.9% | -8.8% | -1.1%
> CCNc1nc(NCC)n2c(SCC(=O)Nc3ccccc3Cl)nnc2n1
→ nt | -18.4% | nt | 0.6%
